Screening data (PubChem)
KCNQ2 enhance: enhances the rat KCNQ2 potassium channel; B-score at 10 µM; CHO-K1 KCNQ2, FluxOR thallium flux fluorescence; stronger effect = higher value; O88943; AID 2239; 310,000 tested, 0.54% active;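 active means fluorescence ratio B-score at least 3 SD of library B-scores, with initial fluorescence B-score within 3 SD, cut at about 5.3 in these data; same plate scores as AID 2156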;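 further: B-score of peak minus minimum over baseline fluorescence ratio after K+ and Tl+ stimulus; positive B-score means potentiation of KCNQ2 with more thallium influx and brighter signal; only the inactives scoring about 0 or higher are listed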
Target sequence (O88943 whole entry, looked up): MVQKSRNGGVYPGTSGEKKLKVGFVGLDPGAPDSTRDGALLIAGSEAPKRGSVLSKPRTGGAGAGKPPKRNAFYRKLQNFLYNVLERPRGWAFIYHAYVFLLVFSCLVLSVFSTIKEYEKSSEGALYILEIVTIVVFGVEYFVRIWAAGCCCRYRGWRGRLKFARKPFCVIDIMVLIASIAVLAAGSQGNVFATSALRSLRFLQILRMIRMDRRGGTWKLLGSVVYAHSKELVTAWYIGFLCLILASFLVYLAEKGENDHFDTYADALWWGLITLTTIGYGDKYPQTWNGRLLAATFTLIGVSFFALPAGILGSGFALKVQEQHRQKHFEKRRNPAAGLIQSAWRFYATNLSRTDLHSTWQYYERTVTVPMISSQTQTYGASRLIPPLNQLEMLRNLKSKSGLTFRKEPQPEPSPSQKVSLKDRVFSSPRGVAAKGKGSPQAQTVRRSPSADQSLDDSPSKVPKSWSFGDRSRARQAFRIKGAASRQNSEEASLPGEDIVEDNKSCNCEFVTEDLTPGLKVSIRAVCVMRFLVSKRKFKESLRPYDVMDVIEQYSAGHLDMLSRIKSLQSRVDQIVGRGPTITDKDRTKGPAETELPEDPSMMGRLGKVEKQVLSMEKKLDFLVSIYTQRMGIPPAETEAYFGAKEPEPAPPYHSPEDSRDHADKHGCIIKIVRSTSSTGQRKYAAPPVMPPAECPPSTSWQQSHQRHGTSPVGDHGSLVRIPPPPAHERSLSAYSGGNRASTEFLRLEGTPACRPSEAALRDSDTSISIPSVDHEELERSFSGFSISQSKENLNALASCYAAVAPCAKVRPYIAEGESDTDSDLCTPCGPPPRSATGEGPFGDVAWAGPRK
KCNQ2 enhance baseline: second read-out of KCNQ2 enhance, no call of its own (marks repeat the call); B-score; compound at 10 µM; measured here: initial fluorescence intensity artifact check;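 brightness before thallium and not channel activity; 0 = typical well and far values either way flag optical interference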
* marks the source's active call; other numbers are inactive results. An excerpt. The share of hits here may be higher or lower than overall.

SMILES	KCNQ2 enhance	KCNQ2 enhance baseline
CC(OC(=O)c1cc(=O)[nH]c2ccccc12)C(=O)NCc1ccccc1 (stereo not given)	2.3	-1.2
O=C(NCCC1=CCCCC1)NC12CC3CC(CC(C3)C1)C2	3.2	-0.11
CCCN1CNC(=S)N(c2ccccc2OCC)C1	1.1	-2.3
Cc1sc(NC(=O)CSc2nnnn2C)c(C#N)c1C	0.74	-0.74
Cc1cc(C)nc(SCCS(=O)Cc2ccc(Cl)cc2)n1 (stereo not given)	0.81	-0.18
NS(=O)(=O)c1ccc(CCNC(=O)c2ccc[nH]c2=S)cc1	0.06	-1.6
COc1ccc(CC(=O)Nc2cccc(SC)c2)cc1OC	0.25	0.24
C=CCNC(=O)NC(=O)COC(=O)CC(NC(N)=O)c1ccc(Cl)cc1 (stereo not given)	0.21	-0.53
O=c1oc2ccccc2c2nccnc12	0.39	1.4
CCc1cc(=O)oc2c3c(cc(OCC(=O)NCc4ccccn4)c12)OC(C)(C)CC3	3.7	0.72
Cc1cc(OCCCCCN2CCCC2)ccc1Cl	3.2	0.29
COC(=O)c1c(C)oc(C)c1S(=O)(=O)NCc1cccs1	0.3	-1.4
CC(C)(C)NS(=O)(=O)c1ccc2[nH]c3c(c2c1)CCCCC3	1.6	0.93
CC(C)(C)OC(=O)N1CCC(CNC(=O)c2ccc(F)cc2F)CC1	0.09	0.04
Cc1ccnc(NC(=O)CCC(=O)N(CC(=O)NCc2ccccc2)c2ccc3c(c2)OCO3)c1	0.07	-1.1
CCOc1ccc2nc(NC(=O)C3(C)CC3(Br)Br)sc2c1 (stereo not given)	1.2	-0.4
O=C(O)CCCc1nc(-c2ccccc2)no1	1.1	1.5
COCCNC(=O)c1cc(-c2cccnc2)nc2ccc(Br)cc12	0.45	0.24
CC(C)(C)NC(=O)C(c1cccs1)N(C(=O)C(=O)NC1CCCC1)c1ccccc1F (stereo not given)	0.01	0.12
COC(=O)CC1C(=O)NCCN1C(=O)CSc1nc2ccccc2o1 (stereo not given)	1.2	-0.89
CC(=O)NN1C(=O)c2ccc3c4c(ccc(c24)C1=O)C(=O)N(NC(C)=O)C3=O	2	-0.49
COc1ccc(NC(=O)C2CCCN(c3cnccn3)C2)c(OC)c1 (stereo not given)	0.72	0.31
CCOc1ccccc1NC(=O)N1CCCC1C(=O)Nc1ccc(NC(C)=O)cc1 (stereo not given)	0.18	-1.1
CCn1c(SCC(=O)Nc2cccc(NC(=O)c3ccco3)c2)nnc1-c1cccs1	0.07	0.62
CC(NC(=O)COC(=O)/C=C/c1ccc([N+](=O)[O-])cc1)c1ccccc1 (stereo not given)	0.29	-0.03
Cc1cccc(C(=O)Nc2ccc(NC(=O)c3ccccc3)cc2)c1	0.23	0.15
CC(C)Cc1nnc(NC(=O)CCC(=O)N2CCN(Cc3ccc(Cl)cc3)CC2)s1	0.92	1.1
O=C(Nc1ccc(-c2ccc3nncn3n2)cc1)C1CCCC1	0.3	1.9
Cc1ccccc1C(=O)N1CCN(c2ccccn2)CC1	1.1	0.84
CCOC(=O)N/N=C/c1c(C)nn(-c2ccccc2Cl)c1Cl	3.2	-0.58

Continued, overlapping the part above by 2 compounds.
SMILES	KCNQ2 enhance	KCNQ2 enhance baseline
Cc1ccccc1C(=O)N1CCN(c2ccccn2)CC1	1.1	0.84
CCOC(=O)N/N=C/c1c(C)nn(-c2ccccc2Cl)c1Cl	3.2	-0.58
O=C(CN(c1ccc(F)cc1)S(=O)(=O)c1ccc2c(c1)OCCO2)Nc1ccc2c(c1)OCO2	0.28	2.4
COc1ccc(N(C(C)C(=O)Nc2ccc(S(=O)(=O)N3CCCCC3)cc2)S(C)(=O)=O)cc1 (stereo not given)	2.4	-0.59
C=CCn1c(=S)[nH]c2scc(-c3cccs3)c2c1=O	25*	-0.9*
Nc1ccc(C(=O)OC2CCOC2=O)cc1[N+](=O)[O-] (stereo not given)	0.02	0.01
COc1ccc(-c2nc(-n3c(C)c(C(C)=O)c(C(C)=O)c3C)sc2C)cc1	1.3	-0.24
COc1cc(-c2noc(C3CCCN(C(=O)c4ccccc4)C3)n2)cc(OC)c1OC (stereo not given)	1.7	-0.2
O=C(Nc1ccccc1C(=O)NCc1ccco1)Nc1cccc2ccccc12	0.36	-0.18
CC12CC3CC(C)(C1)CC(C(=O)NC(=S)N1CCOCC1)(C3)C2	0.2	-1.8
O=C(NCCCN1CCCC(O)C1)c1cc(COc2ccc(F)cc2F)on1 (stereo not given)	0.33	0.49
CCn1cnc2cc(NC(=O)c3ccco3)ccc21	0.97	-0.02
COc1cccc(CN(C)CC(=O)Nc2sc3c(c2C#N)CCC3)c1OC	1.2	1.1
COc1ccc(NC(=O)CSc2nnc(-c3ccccn3)n2-c2ccccc2)cc1OC	0.2	0.99
O=C(Cn1ncc2c1-c1ccccc1OC2)Nc1nc2ccccc2s1	2	1.1
CC(=O)N1c2ccccc2Nc2ccccc21	1.1	-1.2
CN(C)C=Nc1nonc1N	1.6	0.01
O=C1CCCN1CN(C(=O)c1ccccc1)c1ccc(F)cc1	0.35	-0.2
CCc1noc(C)c1C(=O)Nc1nnc(CC(C)C)s1	0.6	-1.6
O=C(Nc1nnc(SCc2ccccc2F)s1)C1=COCCO1	0.73	-1
CCn1cc(CN2CCC(n3nccc3NC(=O)C(OC)c3ccccc3)CC2)cn1 (stereo not given)	0.31	-0.93
O=C(CSc1ccccc1F)NCCCN1CCCC1=O	2	-2
O=C(Nc1ccc(S(=O)(=O)Nc2ccccn2)cc1)c1ccc(Cl)cc1Cl	0.58	-1.3
COc1ccc(CCNS(=O)(=O)c2ccc3oc(C(=O)O)c(C)c3c2)cc1OC	0.03	0.26
Cc1ccc(C)c(OCC(=O)Nc2ccc(C(=O)O)cc2NC(=O)COc2cc(C)ccc2C)c1	0.11	0.02
CCOc1cc(/C=C(\C#N)C(=O)Nc2ccccn2)ccc1O	1	0.63
CCOc1cc(C2NC(=O)NC(O)(C(F)(F)F)C2C(=O)c2ccc(OC)cc2)ccc1O (stereo not given)	1.1	-0.02
Cc1cc(N2CCCCC2)nc(N)n1	0.07	-0.02
O=C(c1ccc(C#CC2(O)CCCCC2)cc1)N1CCN(Cc2ccccc2)CC1	2.2	-0.95
CC(=O)c1ccc(N2CCN(C(=O)Nc3ccc(C(C)C)cc3)CC2)cc1	1.2	-0.2
CC(=O)c1cc2c(cc1NC(=O)C1CCC1)OCO2	0.12	1.6
COc1cccc(Nc2ncc(C#N)c(N)n2)c1	2.2	-0.42

The last 4 compounds of the part before open the next one:
SMILES	KCNQ2 enhance	KCNQ2 enhance baseline
O=C(c1ccc(C#CC2(O)CCCCC2)cc1)N1CCN(Cc2ccccc2)CC1	2.2	-0.95
CC(=O)c1ccc(N2CCN(C(=O)Nc3ccc(C(C)C)cc3)CC2)cc1	1.2	-0.2
CC(=O)c1cc2c(cc1NC(=O)C1CCC1)OCO2	0.12	1.6
COc1cccc(Nc2ncc(C#N)c(N)n2)c1	2.2	-0.42
COc1ccc(NC(=S)NC(=O)c2ccc(Br)o2)cc1	8.5*	-0.39*
COc1ccc(C2=NN(C(=O)c3ccccc3)C(c3ccccc3)C2)c(O)c1 (stereo not given)	0.68	0.74
CCC(=O)c1ccc(O)c(CC=C(C)C)c1	0.62	-0.89
CC(=O)c1ccc(N2CCN(c3ccccc3O)CC2)c([N+](=O)[O-])c1	0.24	-0.01
CCOC(=O)C1(CCOC)CCN(Cc2nc(-c3cccs3)oc2C)CC1	0.87	1.3
COc1ccc(NC(=O)CN2C(=O)N(C)Cc3ccccc32)c(C)c1	0.53	-0.49
CCOC(=O)c1cc2c(C)n(-c3ccc(C)cc3)c(C)c2ccc1=O	3.3	0.03
OC(CN1CCN(c2ccccn2)CC1)Cn1c2ccccc2c2ccccc21 (stereo not given)	0.1	0.5
Cc1oc2c(c(C)cc3oc(=O)c(CC(=O)N[C@@H](C)C(=O)O)c(C)c32)c1C	1	-0.01
O=C(Cn1c(CO)nc2ccccc21)NCCc1ccc(F)cc1	0.39	0.48
O=c1c2ccccc2cnn1-c1nc2ccccc2[nH]1	0.72	0.26
Cc1cc(NC(=O)C2CCCN2C(=O)Nc2c(C)cccc2C)ccc1-n1cnnn1 (stereo not given)	1.7	-2
Cc1cc(NC(=O)CSCc2ccccc2C)no1	0.5	-0.07
Cc1c(NC(=O)c2ccccc2NS(=O)(=O)c2ccc(Br)cc2)c(=O)n(-c2ccccc2)n1C	1.2	-0.51
O=S(=O)(Cc1ccccc1)NCC1CCCN(Cc2cccc3nonc23)C1 (stereo not given)	0.58	0

4 entries picked at random from those above, as already listed:
SMILES	KCNQ2 enhance	KCNQ2 enhance baseline
CCOC(=O)c1cc2c(C)n(-c3ccc(C)cc3)c(C)c2ccc1=O	3.3	0.03
CC(=O)c1ccc(N2CCN(c3ccccc3O)CC2)c([N+](=O)[O-])c1	0.24	-0.01
Cc1oc2c(c(C)cc3oc(=O)c(CC(=O)N[C@@H](C)C(=O)O)c(C)c32)c1C	1	-0.01
OC(CN1CCN(c2ccccn2)CC1)Cn1c2ccccc2c2ccccc21 (stereo not given)	0.1	0.5

Continuation:
SMILES	KCNQ2 enhance	KCNQ2 enhance baseline
O=C(O)/C=C\C(=O)Nc1ccc(OC(F)F)cc1	1.8	-0.29
C/C=C/c1ccc(Oc2nnnn2-c2ccc(C(N)=O)cc2)c(OC)c1	0.02	-0.42
O=C(CSc1nc(-c2ccccc2)cs1)NC(=O)NCc1ccco1	0.13	0.81
CC(=O)C1=C(O)C(=O)N(CCC(=O)O)C1c1ccc(Cl)cc1Cl (stereo not given)	0.14	1.1
Cc1nc2sc(C(c3cccs3)N3CC(C)CC(C)C3)c(O)n2n1 (stereo not given)	0.05	1.3
CCCS(=O)(=O)N1CCN(C(=O)c2ccco2)CC1	0.3	-1.6
CC(=O)NS(=O)(=O)c1ccc(NC(=S)NC(=O)C(C)(C)C)cc1	1.2	0.08
CSc1ccccc1NC(=O)COC(=O)CCc1ccccc1	0.86	0.28
O=C(CCN1C(=O)c2ccncc2C1=O)NCc1ccc(Cl)cc1	0.95	0.14
Cc1ccc(C(=O)NC(=S)Nc2ccc(N3CCOCC3)cc2)c(C)c1	0.41	0.29
COc1ccccc1N1CCN(C2CCCN(C(=O)c3ccoc3)C2)CC1 (stereo not given)	0.67	0.8
CC(=O)Nc1ccc2c(c1)N(S(=O)(=O)c1cccs1)CCC2	1.1	-0.44
O=C1CCCN1CCCNC(=S)Nc1ccc(F)cc1	2.4	-1.5
Cc1ccc(Oc2coc3cc(O)ccc3c2=O)cc1	0.34	-0.16
C#CCOC(=O)Nc1cnccc1C(F)(F)F	2	0.09
C(=N\c1nc2ccccc2[nH]1)/c1cccs1	1.1	-2.2
Cc1c(NS(=O)(=O)c2ccc3c(c2)NC(=O)CC(=O)N3)cccc1[N+](=O)[O-]	0.12	-0.47
CSc1nc(-c2ccc(Cl)cc2)nc(N)c1C#N	0.73	1.8
CCCn1cnc2sc(CC)cc2c1=O	0.03	-0.1
CCOC(=O)C1C(=O)CC(C)(O)C(C(=O)OCC)C1c1ccco1 (stereo not given)	0.38	0
O=C1NCCN/C1=C\C(=O)c1ccc(Cl)cc1	0.05	0.66
COC(=O)c1[nH]c(C)c(/C(O)=C2\C(=O)C(=O)N(CCN(C)C)C2c2cccc(OC)c2OC)c1C (stereo not given)	0.81	0.36
CCOc1ccc(C2C(C(=O)c3ccco3)=C(O)C(=O)N2CCN(C)C)cc1 (stereo not given)	0.1	0.03
Cc1cccc(C)c1N1C(=O)CN(Cc2ccccc2)C1=S	1.8	-0.02
CC1CC(CC(=O)NC(=S)Nc2ccccc2Cl)C(=O)O1 (stereo not given)	0.73	0.22
Nc1c(C(=O)N2CCCCC2)sc2nc3c(cc12)CCCC3	0.09	0.44
COC(=O)c1cnc(Nc2ccc(Cl)cc2)c([N+](=O)[O-])c1	1.9	0.24
Cc1cccc(CCNC(=O)CN(C)S(=O)(=O)c2cnc[nH]2)c1	0.54	-0.74
COc1ccc(-n2nc(C)c3c(=O)c4c([nH]c32)CCCC4)cc1	0.62	0.12
COc1ccc(C2CC(c3ccc(C)o3)=NN2C(C)=O)cc1 (stereo not given)	1.6	0.03
CCCc1cc(C(=O)Nc2sc3c(c2C(=O)OCC)CCCC3)no1	0.41	0.02
N/C(=N\OC(=O)CCCc1ccccc1)c1cccnc1	1.8	-0.75
O=C(NN=C1CCN(Cc2ccccc2)CC1)c1cccc(S(=O)(=O)Nc2ccccc2Cl)c1	0.25	-2
CN(C)S(=O)(=O)c1ccc(N2CCCC2)c(C(=O)N2CCN(S(=O)(=O)c3ccc(F)cc3)CC2)c1	0.93	2.1
Cc1nnc(NC2=NCCC2)s1	1.3	0.34
CCC(C)[C@H](N)c1cn([C@@H](Cc2ccc(O)cc2)C(=O)N2CCNCC2)nn1 (stereo not given in full)	1.6	-0.04
O=C(CNC(=O)c1ccc2c(c1)OCCO2)N=Nc1c(O)[nH]c2ccccc12	0.33	-0.13
COC(=O)CN1C(=O)[C@H]2[C@@H](/C=C/c3ccccc3)N3C(=O)CN(CCO)C(=O)[C@@]3(Cc3ccccc3)[C@H]2C1=O	0.07	-2.7
CC(OC(=O)CNC(=O)c1cccs1)C(=O)Nc1ccc(S(N)(=O)=O)cc1 (stereo not given)	0.1	0.09
O=S(=O)(Oc1ccccc1C(=S)N1CCOCC1)c1ccc(Cl)cc1	0.03	-2.1
Cc1[nH]nc(N2CCCCCC2)c1[N+](=O)[O-]	1.3	-1.1

Some values from the results shown.
Reading of CC(C)(C)OC(=O)N1CCC(CNC(=O)c2ccc(F)cc2F)CC1 in KCNQ2 enhance: 0.09
Reading of Cc1[nH]nc(N2CCCCCC2)c1[N+](=O)[O-] in KCNQ2 enhance baseline: -1.1
Reading of O=C(Nc1ccc(-c2ccc3nncn3n2)cc1)C1CCCC1 in KCNQ2 enhance: 0.3
Reading of COc1ccc(NC(=S)NC(=O)c2ccc(Br)o2)cc1 in KCNQ2 enhance baseline: -0.39*
Reading of COc1ccc(NC(=O)C2CCCN(c3cnccn3)C2)c(OC)c1 (stereo not given) in KCNQ2 enhance baseline: 0.31
